# Source: PubChem BioAssay (National Center for Advancing Translational Sciences (NCATS))
# StopGo FLuc – FMDV 2A StopGo reporter, firefly signal | HEK cells with a luciferase reporter of 2A StopGo recoding | Potency, µM (top dose mostly 57.5 µM), for the others: top-dose signal change, negative = less light | hit rate 0.23% among 120,000 | AID 1745856; active = well fitted falling curve with a large enough effect; inconclusive = small, poorly fitted or top-dose-only effect; inactive = no such curve, though single readings can be large or run the other way; note: nearly all actives have a fitted effect of over 60% in size; overnight with compound
# StopGo RLuc – FMDV 2A StopGo reporter, Renilla signal. HEK cells with a luciferase reporter of 2A StopGo recoding. Potency, µM (doses to about 57.5 µM), inactives show top-dose signal change, negative = less light. hit rate 0.32% among 120,000. AID 1745857; active means well fitted falling curve with a large enough effect; inconclusive means small, poorly fitted or top-dose-only effect; inactive means no such curve, though single readings can be large or run the other way; note: nearly all actives have a fitted effect of over 55% in size; overnight with compound
# Numbers without * were called inactive; ? = inconclusive; [ ] = another dose, or the depositor's remark. % is set by controls: 0 for no effect and ±100 for the full control effect; potency is the fitted concentration of half-maximal effect. The list is partial, so the mix of outcomes need not match the whole.
# The line under a structure holds: StopGo FLuc	StopGo RLuc
> COc1ccc(-c2c(C)oc3cc(OCC(=O)N4CCN(c5ccccn5)CC4)ccc3c2=O)cc1
  ?	?
> CCOC(=O)/C=C/c1ccc(N)cc1
  0%	16%
> CCc1ccccc1NC(=O)c1ccc2c(c1)nnn2C1CCCC1
  8%	254%[activator]
> CC(C)[C@H](Nc1ncnc2sc3c(c12)CCCC3)C(=O)O
  25%	21%
> COc1ccc(-n2nc(C(=O)O)c(=O)n(C)c2=O)cc1
  -15%	10%
> O=C(CSC1=Nc2ccccc2N=C(c2ccc(F)cc2)C1)NCc1ccccc1Cl
  6%	-2%
> Cc1c(-c2ccccc2)nc2ccccc2c1C(=O)OCC(=O)NCC(F)(F)F
  -14%	23%
> CNC(=O)NCc1ccc(OC)cc1
  2%	6%
> CCOc1ccc(OCC)c(NC(=O)C2CCN(S(=O)(=O)c3ccc(Br)s3)CC2)c1
  -8%	-8%
> N#Cc1ccc(F)c(Cn2cnc3ccccc3c2=O)c1
  3%	-7%
> CCN(CC)c1cc2c(cc1F)c(=O)c(S(=O)(=O)c1cccc(C)c1)cn2C
  -17%	9%
> O=C(O)CCCOc1ccc(Cl)cc1Cl
  35%[activator][115 µM]	-12%[114 µM]
> CCOc1ccc(-n2nc(CO)c(C(=O)NCc3ccc(Cl)cc3)n2)cc1
  -16%	1%
> CCc1ccc(C(=O)CC2(O)C(=O)N(CCc3ccccc3)c3ccc(Br)cc32)cc1 (stereo not given)
  ?	45%[activator]
> Cc1[nH]c2ccccc2c1C(c1cccc(F)c1)c1c(C)[nH]c2ccccc12
  5%	-9%
> COc1ccc(Cl)cc1NC(=O)N1CCC2(CC1)Oc1ccccc1C(=O)N2Cc1ccc(F)cc1
  -5%	-4%
> Cc1cc(CS(=O)(=O)Cc2ccc(F)cc2Cl)no1
  0%	-1%
> CC(C)Oc1ccc(CNC(=O)C(C)n2ccc3cc(S(=O)(=O)N4CCCCCC4)ccc32)cc1 (stereo not given)
  -10%	51%[activator]
> CCc1c(C)sc(NC(=O)CSCC(=O)O)c1C(N)=O
  -5%	5%
> COc1cc(C2CC(=O)Nc3sc(C(=O)Nc4ccccc4)c(C)c32)ccc1O (stereo not given)
  117%[activator]	44%[activator]
> COc1ccc(Cl)cc1N(C)C(=O)Cc1noc2ccc(C)cc12
  14%	30%
> CCOc1ccccc1Oc1coc2cc(OC(=O)c3ccc4c(c3)OCO4)ccc2c1=O
  3%	14%
> O=S(=O)(c1ccccc1)c1nc(-c2ccccc2)oc1N1CCN(c2cccc(Cl)c2)CC1
  -17%	-10%
> O=c1cc2nc(-c3cccs3)nc(SCCOc3ccc(Cl)cc3)n2[nH]1
  -14%	-6%
> C=CCOc1ccc(C(=O)Nc2ccc(C)c(C)c2)cc1
  157%[activator]	9%
> O=C(COC(=O)c1nn(-c2ccccc2)c(=O)c2ccccc12)Nc1cccc(C(=O)NC2CC2)c1
  3%	5%
> NS(=O)(=O)c1ccc(N/N=C/c2ccc(F)cc2)c([N+](=O)[O-])c1
  0%	-14%
> COc1cc(NC(=O)COc2ccc3c(C)cc(=O)oc3c2)cc(OC)c1
  -6%	-6%
> O=C(CSc1ncnc2scc(-c3ccc(F)cc3)c12)NC1CC1
  4%	13%
> CC(=O)N1CCN(C(=O)Cn2ccc3ccc(OCc4ccccc4)cc32)CC1
  32%[activator]	-9%
> CCNC(=O)CC1C(=O)N(c2ccc(F)cc2)C(=O)N1Cc1ccc(C)cc1 (stereo not given)
  -9%	16%
> CCN(Cc1c(C#N)c2ccccc2n1C)c1ccccc1
  4%	10%
> CCCCn1c(=O)[nH]c(=O)c2c1nc(COC(=O)/C=C/c1ccc(OC)c(OC)c1)n2CC
  -3%	-2%
> Cc1ccc(C)c(CSc2nnc3[nH]c(=O)cc(C)n23)c1
  4%	22%
> Cc1ccc(N2CCN(S(=O)(=O)c3ccc(-n4cnnn4)cc3)CC2)c(C)c1
  -8%	4%
> COC(=O)Cn1nc(C)c2c(C)n(-c3ccccc3)nc2c1=O
  24%	-3%
> COc1ccc(N(C)C(=O)c2nc(-c3cccc(F)c3)n3c2CCCCC3)c(OC)c1
  -12%	10%
> CCc1cc(CC)n(-c2nc3c(c(=O)n(CC(C)C)c(=O)n3C)n2CCOC)n1
  -8%	-4%
> Cc1cc(S(=O)(=O)N(Cc2ccncc2)C2CC2)ccc1Br
  ?	?
> CCC1CN(C(=O)NCc2ccc(F)cc2)c2cc(Cl)ccc2O1 (stereo not given)
  -24%	10%
> O=[N+]([O-])c1cccnc1Nc1cc(Cl)cc(Cl)c1
  -8%	-3%
> Cc1cccc(CSc2ncc(Cl)c(C(=O)Nc3nnc(C)s3)n2)c1
  -8%	-15%
> Cc1cc(NC(c2nnc(-c3ccccc3)o2)c2ccccc2F)ccc1Br (stereo not given)
  -3%	52%[activator]
> C=C(Br)CNC(=O)Nc1cccc(COC)c1
  46%[activator]	?
> CNC(=O)CN(C)c1nc(-c2ccccc2)c2ccccc2n1
  19%	10%
> Cc1ccc(CCNS(=O)(=O)c2ccc3c(c2)CCN3C(=O)CCC(=O)O)cc1
  -7%	109%[activator]
> COc1cccc(/C=C(\C#N)c2nc3ccccc3[nH]2)c1O
  0%	23%
> O=C(NCCNC(=O)Nc1ccncc1)Nc1ccncc1
  2%	2%
> COc1cc(OC)c(NC(=O)Cn2cnc3nc4c(cc3c2=O)CCCC4)cc1Cl
  1%	-7%
> FC(F)(F)c1cccc(CSc2nnc(SCc3ccc(Cl)cc3)s2)c1
  6%	8%
> COCCn1c(=O)[nH]c2cc(C(=O)N3CCN(c4ccc(Cl)cc4)CC3)ccc2c1=O
  -3%	-4%
> CCc1ccccc1NC(=O)C1CCN(C2=NS(=O)(=O)C(c3ccc(C)c(C)c3)=C2C)CC1
  -10%	2%
> Cc1nc(CSc2ccccc2C(=O)N2CC=C(c3ccccc3)CC2)no1
  -12%	2%
> COc1ccccc1CNc1nc(-c2cc(C)n(C3CC3)c2C)cs1
  -17%	-15%
> O=C(NN(c1ccccc1)c1ccccc1)c1cccc[n+]1[O-]
  8%	-8%
> CCOC(=O)c1ccccc1NC(=O)N(C)CCc1c(C)nn(CC)c1C
  152%[activator]	22%
> Cc1nc(Nc2nc(CCC(C)C)cc(=O)[nH]2)nc2ccccc12
  93%[activator]	104%[activator]
> Cc1ccc(C)c2c(=O)c3ccccc3sc12
  19%	3%
> COCCCNc1oc(-c2ccccc2)nc1C#N
  183%[activator]	26%
> O=C(N[C@@H](Cc1ccccc1)C(=O)O)c1ccccc1
  -6%	-16%

# The listing continues.
mol,StopGo FLuc,StopGo RLuc
CC1CN(C(=O)N2CCC(C(=O)NCc3ccco3)CC2)c2cc(Cl)ccc2O1 (stereo not given),-5%,8%
CC(NC(=O)c1cccnc1)c1ccc(O)cc1 (stereo not given),-7%,-8%
N#Cc1ccccc1NC(=O)CCN1CCCN(Cc2cccs2)CC1,-5%,-8%
O=C(Nc1ccc(F)cc1)c1cc2cc3ccc(Cl)cc3nc2o1,30%,-6%
CCc1ccc(CN(Cc2ccco2)C(=O)c2cc(-c3ccc(C)c(F)c3)on2)cc1,17%,-5%
CCOC(=O)c1nc(Nc2ccc(OC(C)C)cc2)c2ccccc2n1,71%[activator],18%
Cc1ccc(Cl)cc1N1CCN(CCCNc2ncnc3onc(-c4ccc(F)cc4)c23)CC1,-16%,-17%
Cc1ccc(S(=O)(=O)C(CNC(=O)C(=O)NCCc2ccc(Cl)cc2)c2cccs2)cc1 (stereo not given),-22%,?
COc1ccc(-n2cc(C(=O)NCc3ccccc3Cl)c3ccccc3c2=O)cc1,?,?
CCN1CCN(CCC(=O)Nc2sc(-c3ccccc3)cc2C(=O)OC)CC1,-5%,1%
Cc1ccc(-c2nc3cc(NC(=O)c4ccc([N+](=O)[O-])o4)ccc3o2)cc1,76%[activator],-1%
COc1ccc(CCNC(=S)Nc2ccc(F)cc2)cc1,?,-8%
Cc1cc(SC#N)cc(C)c1N,0%,3%
Cc1cc(C)c2[nH]c(C)c(CN3CC4(C)CC3CC(C)(C)C4)c(=O)c2c1 (stereo not given),-21%,-3%
CNC(=O)CCS(=O)(=O)Cc1coc(-c2ccc(F)cc2)n1,20%,3%
Clc1ccc(-n2ncc3c(NC4CCCCC4)ncnc32)cc1,0%,10%
COC(=O)C(CCSC)Nc1ncnc2onc(-c3ccc(F)cc3)c12 (stereo not given),-7%,218%[activator]
CCOC(=O)c1nc2ccccc2nc1NCc1ccc(C)cc1,81%[activator],-1%
Cc1oc(-c2nc(C#N)c(NC(C)c3ccccc3)o2)cc1S(=O)(=O)N1CCOCC1 (stereo not given),-11%,4%
Fc1ccc(CN2CCC(NCC3CNc4ccnn4C3)CC2)cc1 (stereo not given),-7%,-14%

# Reformatted: results already given.
SMILES: COc1ccc(-n2cc(C(=O)NCc3ccccc3Cl)c3ccccc3c2=O)cc1
  StopGo FLuc = ?; StopGo RLuc = ?
SMILES: CCN1CCN(CCC(=O)Nc2sc(-c3ccccc3)cc2C(=O)OC)CC1
  StopGo FLuc = -5%; StopGo RLuc = 1%
SMILES: Cc1ccc(-c2nc3cc(NC(=O)c4ccc([N+](=O)[O-])o4)ccc3o2)cc1
  StopGo FLuc = 76%[activator]; StopGo RLuc = -1%
SMILES: COc1ccc(CCNC(=S)Nc2ccc(F)cc2)cc1
  StopGo FLuc = ?; StopGo RLuc = -8%

# Following part:
mol,StopGo FLuc,StopGo RLuc
O=c1[nH]nc(-c2ccc(NCCCO)c([N+](=O)[O-])c2)c2ccccc12,14%,2%
CC(C)C(C)(C#N)NC(=O)CSc1ccc2ccccc2n1 (stereo not given),15%,3%
Brc1ccc(-c2ccc(-c3nnc(-c4ccco4)o3)o2)cc1,98%[activator],9%
CCCCc1nn2c(=O)cc(COC(=O)c3ccc(NC(=O)c4ccccc4Cl)cc3)nc2s1,76%[activator],18%
c1cncc(CNCCN2CCCC2)c1,-3%,1%
CC(C(=O)NC1CCCCC1)(c1ccccc1)c1ccccc1,-5%,8%
COc1cc(Cl)c(C)cc1NC(=O)CCc1c(C)nc2c3cccnc3nn2c1C,-12%,-14%
CCN(CCCNC(=O)Cn1ncc2c3ccccc3n(C)c2c1=O)Cc1ccccc1,-10%,-23%
CC(=O)c1ccc(N2CCN(C(=O)CNC(=O)NCc3ccc(F)cc3)CC2)cc1,14%,5%
CCN1CCC(NC(=O)C2CCN(S(=O)(=O)c3ccccc3F)CC2)CC1,3%,-12%
CCCC(=O)Nc1ccc(O)c(-c2nc3cc(CC)ccc3o2)c1,-7%,-7%
Cc1ccc(-n2cc(C(=O)N3CCc4ccccc4C3)nn2)cc1,13%,-15%
CC(=O)c1cc(F)c(N2CCN(C(=O)c3cccc(F)c3)CC2)cc1C,0%,7%
CCCn1nnc(NCc2ccc(Cl)cc2Cl)n1,116%[activator],-5%
N#C/C(=C/c1cccc2c1OCCCO2)c1nc2ccccc2[nH]1,?,?
O=C(O)CC(C(=O)OCC(F)(F)C(F)F)N1CCOCC1 (stereo not given),-16%,-9%
COc1cc(OC)c(NC(=O)CCOc2cc(C)ccc2C)cc1Cl,-1%,24%
CCOC(=O)N1CCN(C(=O)c2nn3c(C(F)(F)F)cc(-c4ccccc4)nc3c2Cl)CC1,-2%,24%
CN1CCC(N(C)C(=O)CCc2ccccc2Cl)CC1,-1%,4%
CCc1ccccc1NC(=O)CSc1ncc2c(n1)-c1ccccc1N(C)S2(=O)=O,9%,-10%
CC(OC(=O)c1ccccn1)C(=O)C12CC3CC(CC(C3)C1)C2 (stereo not given),-4%,0%
Cc1ccc2c(c1)C(c1ccccc1)N(C(=O)Cc1ccc(F)cc1)CC(=O)N2 (stereo not given),0%,158%[activator]
CCOC(=O)c1ccc(NC(=O)c2c(C)nn(-c3ccc(F)cc3)c2-n2cccc2)cc1,3%,1%
Cc1ccc(-c2nc(CSCc3ccc(C#N)cc3)cs2)cc1,0%,-11%
COc1cc(NC(=O)c2nn(-c3ccc(C)cc3)c(=O)c3c2c2ccccc2n3C)cc(OC)c1OC,-11%,-12%
Cc1ccc(COc2ccc(-c3cc(C(F)(F)F)n4nc(C)cc4n3)cc2)cc1,1%,-10%
C#CCOC(=O)c1ccccc1C(=O)N(C1CCCCC1)C1CCCCC1,?,?
CCOC(=O)CC1c2cc(OCC)c(OCC)cc2CCN1C(=O)Nc1cccc(Cl)c1 (stereo not given),-14%,11%
CCN(CC)c1cc(C)c2cc(NC(=O)c3ccccc3OC)ccc2n1,18%,14%
O=C(Nc1ccc2c(c1)OCCO2)C1=CCN(Cc2ccccc2F)CC1,161%[activator],12%
CCn1c(C)cc(C(=O)COC(=O)c2nccnc2N)c1C,29%,-6%
O=C(NCCc1cccc2cccnc12)Nc1cccc(NC(=O)Nc2ccccc2)c1,121%[activator],72%[activator]
COc1cccc(NC(=O)CCc2nc3c(C)nn(-c4ccc(C)cc4)c3n(C)c2=O)c1,-1%,-4%
CCCCCCCCC(=O)Oc1ccc(C(=O)O)cc1,10%,6%
CCc1ccc(NC(=O)N2CCN(Cc3nc4ccc(C)cc4o3)CC2)cc1,-9%,-19%
CC(=O)Nc1cccc(NC(=O)CCc2ncc(-c3ccc(Cl)cc3)o2)c1,1%,-3%
CSc1ccc(Cl)c(C(=O)NCc2ccc(-n3cccn3)cc2)c1,4%,16%
